# HPGD block = qHTS Assay for Inhibitors of HPGD (15-Hydroxyprostaglandin Dehydrogenase). 4.3% of 150,000 active. AID 894, 2007. Potency, µM, for the others: top-dose activity change, negative = inhibition, usual class: inhibitors. purified HPGD, NADH fluorescence kinetic, PGE2 substrate. 15-hydroxyprostaglandin dehydrogenase [NAD(+)] (Homo sapiens), P15428; active = well fitted inhibition curve with a large enough effect (not every such curve was filed as active); inconclusive = small, poorly fitted or top-dose-only effect, or another doubt; inactive = no such curve, though single readings can be large or run the other way;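 also: top concentration of the series not given in the record; plate controls included wells without enzyme; inactives centre near -10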
# Target sequence (P15428 whole entry, looked up): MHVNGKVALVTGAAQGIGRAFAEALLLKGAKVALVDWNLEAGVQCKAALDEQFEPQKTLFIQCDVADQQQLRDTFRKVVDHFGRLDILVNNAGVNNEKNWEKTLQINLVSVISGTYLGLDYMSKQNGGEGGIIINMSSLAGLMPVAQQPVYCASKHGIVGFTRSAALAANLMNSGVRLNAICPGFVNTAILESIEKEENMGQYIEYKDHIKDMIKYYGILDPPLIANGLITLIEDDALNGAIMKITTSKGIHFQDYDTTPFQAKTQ
#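 20 nM HPGD preincubated 15 min at room temperature with compound in 50 mM Tris-HCl pH 8, 0.01% Tween 20. Started with 1 mM NAD+ and 30 uM prostaglandin E2; NADH fluorescence (360/450 nm) read 5 times over 30-s intervals, last minus first.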
# Starred values were filed as active, the others as inactive; u = inconclusive; & = joins results of further samples. % is scaled to controls: 0 for no effect and ±100 for the full control effect; potency is read from the fitted curve at half-maximal effect.
SMILES,HPGD block
CCOC(=O)N1CCN(C(=O)/C=C/c2ccc3c(c2)OCO3)CC1,u
Cc1ccc(-c2cc(C(F)(F)F)n3ncc(C(=O)O)c3n2)cc1,-15%
O=C(NCCSCc1ccccc1)c1ccccc1,-27%
CCCN(CCC)C1CC(=O)N(Cc2ccccc2)C1=O (stereo unspecified),1%
CCCC(=O)Nc1nc2ccc(NC(=O)c3cccnc3)cc2s1,-12%
Cc1ccc(C(=O)NCC(=O)NCC(=O)OCC(=O)c2cccs2)cc1,-4%
O=C(COc1ccccc1)N1CCN(C(=O)c2cccc(F)c2)CC1,-1%
COC(=O)CCC(=O)Oc1ccc(OC(=O)CCC(=O)OC)cc1,-15%
Cc1ccccc1NS(=O)(=O)c1ccc(C)c(C(N)=O)c1,-5%
CCN(CC)CCNC(=O)COc1ccc(OC)cc1,1%&3%
Cc1cc(C)c2nc(NNC(=O)c3ccc(S(=O)(=O)N4CCCC(C)C4)cc3)sc2c1 (stereo unspecified),-12%
COc1ccc(CCn2c(N3CCOCC3)nc3c2c(=O)[nH]c(=O)n3C)cc1,-12%
CCOC(=O)c1cnc(SCC(=O)c2ccc(C)cc2)nc1N,-3%
CC(C)CN(CC(C)C)S(=O)(=O)N1CCC(C(=O)NCc2ccc(F)cc2)CC1,-19%
CCc1cccc(CC)c1NC(=O)c1cc(CN2C(=O)c3ccccc3C2=O)ccc1OC,-2%
COCc1cc(C)nc(SCC(=O)c2ccc(O)c(O)c2)c1C#N,16µM*
Cc1c(C(=O)OC(C)C)[nH]c2c1C(=O)CCC2,-10%
O=[N+]([O-])c1cccc(S(=O)(=O)NCC2CCCO2)c1 (stereo unspecified),-4%
CCOC(=O)C(C(=O)NCC1CCCO1)C1CCCCC1 (stereo unspecified),-4%
COc1ccccc1NC(=O)c1ccc(COc2ccccc2OC)o1,-21%
CCOc1ccccc1CNCCO,-2%
COc1cc(NC(=O)C2CCCO2)c(C(=O)O)cc1OC (stereo unspecified),-12%
O=C1CN(C(=O)COc2ccccc2)CCN1,-11%
O=C(COC(=O)Cc1ccc(Cl)cc1Cl)NCCC1=CCCCC1,-14%
CC/C(C)=N/Nc1cccc([N+](=O)[O-])c1,-6%
O=C(Nc1cccc(C(F)(F)F)c1)C(Sc1cccc[n+]1[O-])c1ccccc1 (stereo unspecified),4%
O=C(NC1CCN(Cc2ccccc2)CC1)C1CCN(c2nnc(-n3cccc3)s2)CC1,-15%
O=C(c1cc(-c2ccccc2O)on1)N1CCCC1,-30%
CC(NC(=O)Cn1nc(C(F)(F)F)c2c1CCC2)c1ccccc1 (stereo unspecified),-11%
Cc1onc(-c2ccccc2)c1C(=O)NCc1ccccn1,-6%
CNC(=O)c1cccc(N2CCCC2=O)c1,-4%
Cn1c(=O)c2c(ncn2CC(=O)OCc2ccccc2)n(C)c1=O,-3%
Fc1cc(F)c(F)c(SCCc2ccncc2)c1F,u
CCn1nnc(-c2ccccc2NC(=O)c2cc(OC)cc(OC)c2)n1,-5%
CCCCCCOC(=O)NCC(O)c1ccccc1 (stereo unspecified),-20%
CCC(C)N=CC1=C(O)C(C(=O)OC)C(C)(C)CC1=O (stereo unspecified),-6%
CCOc1ccc(S(=O)(=O)Nc2ccc(Cl)cn2)c(C)c1C,-10%
COc1ccc(CCNS(=O)(=O)c2ccccc2)cc1OC,-10%
Cn1c(=O)c2c(ncn2CC(=O)NCc2cccnc2)n(C)c1=O,-2%
O=C(/C=C/c1ccco1)Nc1ccc(N2CCCC2)cc1,-5%
CCN1CCN(Cc2ccc(NC(=O)Nc3ccccc3)cc2)CC1,-5%
CCOC(=O)C1=C(C)N(c2ccc(Cl)cc2)C(=O)NC1c1cccc([N+](=O)[O-])c1 (stereo unspecified),-5%
CC(=O)c1cccc(NC(=O)N2CCCC2C(=O)NCCc2ccccc2)c1 (stereo unspecified),-4%
O=C(N1CCCCC1)C12CC3CC(C1)CC(C(=O)N1CCCCC1)(C3)C2,0%
CCCCC(=O)NC(Nc1nc(C2CC2)cs1)(C(=O)OCC)C(F)(F)F (stereo unspecified),-1%
O=C(NCC1CCCO1)c1ccc2c(=O)n(Cc3ccco3)c(SCC(=O)N3CCCC3)nc2c1 (stereo unspecified),u
COC(=O)CSc1nc(C2CC2)cc(C(F)(F)F)c1C#N,-3%
CC1(C(=O)O)CCC(C(=O)Nc2ccc(S(N)(=O)=O)cc2)C1(C)C (stereo unspecified),-16%
CC(C)=CCC/C(C)=C/CC/C(C)=C/CC/C(C)=C/CO,-10%
Cc1cc(N/N=C/c2cccc(Br)c2)nc2ccccc12,-15%

# Next records
SMILES,HPGD block
COc1ccc(-c2nc(N)n[nH]2)cc1OC,-12%
COC(=O)c1nc(NC(=O)c2ccc(Br)cc2)n[nH]1,-25%
COc1ccccc1N1CCN(C(=O)c2ccc(C(C)(C)C)cc2)CC1,-9%
O=C(c1ccc2c(c1)C(=O)N(CCCO)C2=O)c1ccc2c(c1)C(=O)N(CCCO)C2=O,-9%
CCCC(C)NC(=O)COc1ccc(S(=O)(=O)c2ccc(OCC(=O)NC(C)CCC)cc2)cc1 (stereo unspecified),-12%
COc1ccccc1N(Cc1ccccc1)S(=O)(=O)c1cccc(C(=O)Nc2ccc(C(C)=O)cc2)c1,-24%
CCC(=O)NC(=S)Nc1ccc(NC(=O)COc2ccc(Cl)cc2Cl)cc1,-13%
C=CCC1(C#N)C(SC)=NC2=C(C(=O)CC(C)(C)C2)C1c1ccc(Br)cc1 (stereo unspecified),-5%
CCCc1nc(SCC(=O)Nc2ccccc2)c2c(=O)n(C)c(=O)n(C)c2n1,-14%
CCOc1ccc(OCc2ccc(C(=O)NCC3CCCO3)o2)cc1 (stereo unspecified),-29%

# 6 compounds from above, sorted by the number in HPGD block, largest number first:
SMILES,HPGD block
C=CCC1(C#N)C(SC)=NC2=C(C(=O)CC(C)(C)C2)C1c1ccc(Br)cc1 (stereo unspecified),-5%
O=C(c1ccc2c(c1)C(=O)N(CCCO)C2=O)c1ccc2c(c1)C(=O)N(CCCO)C2=O,-9%
CCCC(C)NC(=O)COc1ccc(S(=O)(=O)c2ccc(OCC(=O)NC(C)CCC)cc2)cc1 (stereo unspecified),-12%
CCC(=O)NC(=S)Nc1ccc(NC(=O)COc2ccc(Cl)cc2Cl)cc1,-13%
CCCc1nc(SCC(=O)Nc2ccccc2)c2c(=O)n(C)c(=O)n(C)c2n1,-14%
COc1ccccc1N(Cc1ccccc1)S(=O)(=O)c1cccc(C(=O)Nc2ccc(C(C)=O)cc2)c1,-24%

# (more compounds)
SMILES,HPGD block
CCN(CC)C(=O)CSc1nnc(-c2cc3ccccc3cc2O)n1CC,-17%
COC(=O)c1ccc(CSc2nc3ccccc3c(=O)n2-c2ccccc2)o1,-18%
CCc1ccc(NC(=O)CN2CCc3ccccc3C2)cc1,-6%
COc1ccc(/C=C/C(=O)NNc2c(F)c(F)cc(F)c2F)cc1OC,-18%
COc1cccc(C(c2sc3nc(C)nn3c2O)N2CCc3ccccc3C2)c1 (stereo unspecified),11µM*
O=c1n(-c2ccccc2)c(=O)n2n1CCCC2,-8%
Clc1ccccc1-c1cc(NCc2cccnc2)ncn1,-16%
COc1ccccc1-c1nc2n(n1)C(c1ccc(Cl)cc1)C(C(N)=O)=C(C)N2 (stereo unspecified),-9%
Cc1ccc(CNC(=O)c2cc3c(=O)n4cccc(C)c4nc3n(CC3CCCO3)c2=N)cc1 (stereo unspecified),u
O=CN1CCN(C[C@H](O)CN2CCCCC2)CC1,-4%
CS(=O)(=O)CCC(C(=O)N1CCOCC1)N1C(=O)c2cc(Cl)c(Cl)cc2C1=O (stereo unspecified),-13%
CCCc1cc(N2CCCC(C(=O)Nc3c(OC)cccc3OC)C2)n2ncnc2n1 (stereo unspecified),-11%
COC/C=C/C1=CC2=CC(=O)C(C)(OC(=O)c3ccco3)C(=O)C2=CO1 (stereo unspecified),-24%
COc1ccc(-c2cc(=O)c3ccc(O)cc3o2)cc1,-19%
CCCCC(=O)Nc1cccc(NC(=O)CC)c1,3%
Cc1ccc(NC(=O)CSc2ncnc3ccccc23)cc1S(=O)(=O)N1CCCCC1,-17%
CCOC(=O)C1=C(C)OC(N)=C(C#N)C1C1CCCCC1 (stereo unspecified),-8%
O=C(CNC(=O)c1ccccc1F)OCC(=O)N1CCCCC1,-3%
COc1ccc(CNCCc2ccccc2)cc1OCC(N)=O,-10%
N#Cc1ccccc1NC(=O)Nc1cccc(Cl)c1,-5%
CC(=O)Nc1ccc2c(c1)C(=O)N(c1ccc(C)cc1)C2=O,u
CN(C)c1nc(NCc2ccccc2)nc(SCC(=O)Nc2ccccc2Cl)n1,-15%
CC(NC(=O)Nc1cccc([N+](=O)[O-])c1)(C(F)(F)F)C(F)(F)F,-15%
COc1ccc(C(=O)COC(=O)CNS(=O)(=O)c2ccc(C)cc2)cc1,3%
O=C(NCc1ccco1)C1CCN(c2ccc(N3CCOCC3)nn2)CC1,u
CC1(C)CC(=O)C(C=NCCN2CCN(C(=O)CC3CCCC3)CC2)=C(O)C1,-6%
O=C1NC(NS(=O)(=O)c2ccc(Cl)cc2)(C(F)(F)F)C(=O)N1c1ccccc1 (stereo unspecified),-10%
CN(CC(=O)NCc1cccs1)S(=O)(=O)c1cccc2cccnc12,-13%
COc1ccc(CCNc2oc(-c3ccc(C)cc3)nc2C#N)cc1OC,u
O=C(N/N=C/c1cccnc1)C(O)(c1ccccc1)c1ccccc1,-4%

# A few values from the list:
# `CN(C)c1nc(NCc2ccccc2)nc(SCC(=O)Nc2ccccc2Cl)n1` @ HPGD block: -15%
# `O=C(N/N=C/c1cccnc1)C(O)(c1ccccc1)c1ccccc1` @ HPGD block: -4%

# The list goes on.
SMILES,HPGD block
CC(NC(=O)c1ccccc1NS(C)(=O)=O)c1ccccc1 (stereo unspecified),u
CCCN1CCC(N2CCN(c3cccc(C(F)(F)F)c3)CC2)CC1,-5%
CCOC(=O)C(C(=O)c1ccccc1)C1CC(C)NC(=S)N1 (stereo unspecified),1%
N#Cc1ccc(N2CCc3ccccc3C2)c([N+](=O)[O-])c1,-8%
S=c1[nH]ncn1/N=C/c1ccccc1,-1%
CC1=CC(C)(C)Nc2ccc(OC(=O)c3ccco3)cc21,-20%
Cc1ccc(CCSCC(=O)O)cn1,0%
CC(C)CCN1C(=O)CCC1(C)C(=O)NC1CCCCCC1 (stereo unspecified),0%
COc1ccc(S(=O)(=O)N(Cc2cccs2)C2CCCC2)cc1,-12%
CCOC(=O)C1CCN(C(=O)c2cccc(C(=O)N3CCC(C(=O)OCC)CC3)c2)CC1,6%
Cc1cc(C(=O)NCc2ccc(S(N)(=O)=O)cc2)c(C)o1,-5%
Cc1cc(NC(=S)Nc2ccccc2)ccc1Br,-4%
CC(C)[C@H](CO)Nc1nc(Nc2ccc(C(=O)O)c(Cl)c2)c2ncn(C(C)C)c2n1,-15%
CCCCC/C=C\C/C=C\C/C=C\C/C=C\CCCC(=O)O[C@@H](CO)COC(=O)CCCCCCCCCCCCCCCCC,-3%
COc1ccccc1N1CCN(CCCCN2C(=O)c3ccccc3C2=O)CC1,-25%
O=C(NCc1ccco1)c1cccc2ccccc12,14µM*
CCCCC(=O)Nc1sc2c(c1C(N)=O)CCC2,-2%
O=C(/C=C/c1ccc([N+](=O)[O-])cc1)NCCSCc1ccco1,-23%
N/C(=N\OC(=O)Cc1ccccc1)c1cccnc1,-1%
Cn1c(SCc2ccc(Br)cc2)nnc1-c1cccs1,-4%
N#Cc1c(NC(=O)c2cc(-n3cnnc3)ccc2Cl)sc2c1CCCC2,-11%
N#CCSc1nnc(-c2ccccc2O)n1Cc1ccccc1,-9%
O=C(NNC(=S)Nc1ccc(Cl)cc1Cl)c1ccc(N2CCOCC2)c([N+](=O)[O-])c1,u
Cc1ccc(NC(=O)COC(=O)CCNS(=O)(=O)c2ccc(C)c(C)c2)cc1,-4%
Cc1cccc(OCCCC(=O)Nc2ccc(N3CCCCC3)cc2)c1,-2%
COc1ccccc1/C=c1\sc2nc(-c3ccccc3OC)nn2c1=O,-8%
CC(=O)N1CCN(S(=O)(=O)c2cccc(C(=O)Nc3ccc4c(c3)CCC4)c2)CC1,-13%
Cc1c(Cl)cccc1NC(=O)c1cccc(NC(=O)CCC(=O)O)c1,-13%
COc1ccc(-c2ccc(-c3cc(=O)oc4cc(OC)c(OC)c(OC)c34)cc2)cc1,1%
COc1ccc(C(=O)Nn2cc3c(c2-c2ccccc2)c(=O)n(C)c(=O)n3C)cc1,1%

# Sorted by SMILES length (low to high): some entries from above.
SMILES,HPGD block
N#Cc1ccc(N2CCc3ccccc3C2)c([N+](=O)[O-])c1,-8%
Cc1c(Cl)cccc1NC(=O)c1cccc(NC(=O)CCC(=O)O)c1,-13%
COc1ccc(C(=O)COC(=O)CNS(=O)(=O)c2ccc(C)cc2)cc1,3%
CC(C)CN(CC(C)C)S(=O)(=O)N1CCC(C(=O)NCc2ccc(F)cc2)CC1,-19%

# More entries
SMILES,HPGD block
CC[C@H](C)C1NC(=O)[C@H](CC(=O)O)NC(=O)c2cc([N+](=O)[O-])cc(I)c2NCCC(C(N)=O)NC1=O (stereo partly specified),-21%
O=C(CCCn1c(=S)[nH]c2cc3c(cc2c1=O)OCO3)N1CCN(c2ncccn2)CC1,-21%
COc1ccc(C(C)NC(=O)c2ccc(Br)cc2)cc1OC (stereo unspecified),u
Cc1ccc(Cn2nnc3c(=O)n(CC(=O)N4CCCCC4)cnc32)cc1,-22%
COc1cccc(C2C(C(=O)Nc3cccnc3)=C(C)Nc3nnnn32)c1OC (stereo unspecified),-13%
O=C(NC(=S)Nc1ccc(N2CCOCC2)cc1)c1ccc(Cl)cc1,-6%
O=C(O)c1ccc(C(=O)c2ccc3c(c2)C(=O)N(Cc2ccco2)C3=O)cc1,8.9µM*

# Assay outcomes: PubChem, National Center for Advancing Translational Sciences (NCATS)

# An excerpt, so the mix of outcomes need not match the whole.
